VEEV TC-83 Vero = inhibitors of VEEV TC-83 cytopathic effect, confirmation, Vero cells (AID 588727) | 0.13% of 350,000 active | Vero cells, VEEV TC-83 cytopathic effect inhibition; higher % means a stronger effect | inhibition, % at 20 µM; hits with a dose series show IC50 in µM; in the data active = a potency from the dose series; inconclusive = inhibition mostly from about 14% at the one dose, without a potency; inactive = the rest, 99 in 100 with inhibition below about 12%; note: strong numbers were not always called active
tuberculosis growth = growth inhibition of non-replicating M. tuberculosis (AID 488890). 0.39% of 320,000 active. inhibition, % at 25 µM; hits with a dose series show IC50 in µM. Mycobacterium tuberculosis non-replicating, growth inhibition; higher % means a stronger effect; in the data active = a potency from the dose series; inconclusive = inhibition mostly from about 82% at the one dose, without a potency; inactive = the rest, 99 in 100 with inhibition below about 76%;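 note: plate controls were DMSO cells for no effect and high antibiotic wells for full effect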
H37Rv inhibition = M. tuberculosis growth inhibition, HTS (AID 449762). M. tuberculosis H37Rv growth inhibition, 7H9 media; higher % means a stronger effect. inhibition, % at 25 µM; hits with a dose series show IC50 in µM. 0.59% of 330,000 active; in the data active = a potency from the dose series; inconclusive = inhibition above about 70% without an active follow-up result;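 note: bacterial growth assessed after seven days of incubation; strong numbers were not always called active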
Active calls of the source: *; i = inactive; ? = inconclusive; & = joins results of further samples.

Every second line gives: tuberculosis growth, H37Rv inhibition, VEEV TC-83 Vero
[1] Cc1ncc([N+](=O)[O-])n1CCO
 : -3%, 0%, 2.0%
[2] CCOc1cc2c(cc1OCC)-n1cccc1C(c1cccc([N+](=O)[O-])c1)NC2 (stereo not drawn)
 : 18%, 12%, 0.8%
[3] O=C(N/N=C(\Cc1ncc[nH]1)c1ccccc1)c1cccnc1
 : 48%, -12%, 1.4%
[4] O=C(CSc1ccc(-c2ccccn2)nn1)Nc1ccc(F)c(F)c1
 : ?, ?, 0.3%
[5] Cn1c(=O)c2c(ncn2C)n(C)c1=O
 : 3%, -5%, 1.1%
[6] CC1=C([N+](=O)[O-])C(c2ccccc2)C2=C(N1)c1ccccc1C2=O (stereo not drawn)
 : 20%, 3%, 0.5%
[7] NS(=O)(=O)OCCCc1ccc(C(F)(F)F)cc1
 : 31%, 1%, 0.1%
[8] Cc1cccc(N2C(=O)CS/C2=N\NC(=O)c2ccc(Br)cc2)c1C
 : 26%, -8%, 0.8%
[9] O=C(Nc1ccccc1)Nc1nccs1
 : 7%, -12%, 3.0%
[10] O=C(O)c1cc(=O)c2ccccc2[nH]1
 : 6%, -7%, 0.2%
[11] CC(C)COC(=O)c1ccccc1C(=O)OCC(C)C
 : 8%, -1%, i
[12] CO[C@@]12[C@H](COC(N)=O)C3=C(C(=O)C(C)=C(N)C3=O)N1C[C@@H]1N[C@@H]12
 : ?, 40µM*, 0.6%
[13] O=c1c(-c2ccc(O)cc2)coc2cc(O)ccc12
 : 3%, 3%, 8.5%
[14] COc1nsnc1NS(=O)(=O)c1ccc(NC(=S)NC(=O)c2ccncc2)cc1
 : 68%, -9%, 2.1%
[15] COc1ccc2c(c1)[nH]c1c(C)nccc12
 : 0%, 35%, ?
[16] CCN1CCN(CCCNC(=O)c2ccc(/C=C3/Sc4ccccc4N(Cc4ccccc4F)C3=O)cc2)CC1
 : 56%, 7%, i
[17] COC1=CC(=O)C[C@@H](C)[C@]12Oc1c(Cl)c(OC)cc(OC)c1C2=O
 : 5%, -3%, 1.7%
[18] CCN1CCN(c2cc(N3CCc4ccccc4C3)c(F)cc2[N+](=O)[O-])CC1
 : 71%, 31%, 8.6%
[19] O=c1[nH]cnc2c1ncn2[C@H]1CC[C@@H](CO)O1
 : -6%, 4%, 0.5%
[20] C=CCNC(=O)c1cn(CC)c2cc(N3CCN(C(=O)c4ccco4)CC3)c(F)cc2c1=O
 : 52%, ?, 7.0%

Results in sequence from above.
VEEV TC-83 Vero for nos. 5 to 11 → 1.1%, 0.5%, 0.1%, 0.8%, 3.0%, 0.2%, i
tuberculosis growth for nos. 5 to 11 → 3%, 20%, 31%, 26%, 7%, 6%, 8%
H37Rv inhibition for nos. 5 to 11 → -5%, 3%, 1%, -8%, -12%, -7%, -1%

A draw from above in order of formula weight, smallest number first.
Every second line gives: tuberculosis growth, H37Rv inhibition, VEEV TC-83 Vero
[10] O=C(O)c1cc(=O)c2ccccc2[nH]1
 : 6%, -7%, 0.2%
[15] COc1ccc2c(c1)[nH]c1c(C)nccc12
 : 0%, 35%, ?
[3] O=C(N/N=C(\Cc1ncc[nH]1)c1ccccc1)c1cccnc1
 : 48%, -12%, 1.4%

Looked up one by one from the entries so far (2):
Every second line gives: tuberculosis growth, H37Rv inhibition, VEEV TC-83 Vero
[1] Cc1ncc([N+](=O)[O-])n1CCO
 : -3%, 0%, 2.0%
[9] O=C(Nc1ccccc1)Nc1nccs1
 : 7%, -12%, 3.0%

More results.
Every second line gives: tuberculosis growth, H37Rv inhibition, VEEV TC-83 Vero
[21] CCc1ccc2c(c1)C1(NN=C(c3ccc(C)cc3)S1)C(=O)N2 (stereo not drawn)
 : ?, 6%, i
[22] COc1ccc(/C=C/C(=O)O)cc1O
 : 2%, -10%, 0.3%
[23] O=C(NC1CCCCC1)c1ccc([N+](=O)[O-])o1
 : ?, ?, >25µM*
[24] O=C(O)C[C@@H](O)C(=O)O
 : -7%, -4%, i
[25] Cc1c(O)cccc1C(=O)N[C@@H](CSc1ccccc1)[C@H](O)CN1C[C@H]2CCCC[C@H]2C[C@H]1C(=O)NC(C)(C)C
 : 37%&55%, ?, ?

Filtered by structure, the entries above containing an NH in an aromatic ring.
Every second line gives: tuberculosis growth, H37Rv inhibition, VEEV TC-83 Vero
[3] O=C(N/N=C(\Cc1ncc[nH]1)c1ccccc1)c1cccnc1
 : 48%, -12%, 1.4%
[10] O=C(O)c1cc(=O)c2ccccc2[nH]1
 : 6%, -7%, 0.2%
[15] COc1ccc2c(c1)[nH]c1c(C)nccc12
 : 0%, 35%, ?
[19] O=c1[nH]cnc2c1ncn2[C@H]1CC[C@@H](CO)O1
 : -6%, 4%, 0.5%

Bioassay records as filed in PubChem.

Some of the compounds tested, so the mix of outcomes need not match the whole.
